RmlCD inh mix = RmlC/RmlD inhibition, mixture screen. actives 0.39% (n = 110,000). inhibition, % at 5.5 µM. RmlC/RmlD coupled enzyme inhibition, 384-well mixture HTS; in the data active means inhibition above about 30%, passing the limit was not always enough; only retested compounds are shown here; further: strong numbers were not always called active
RmlCD inh mix retest = recorded beside RmlCD inh mix, whose call it bears; inhibition, %; measured here: mean retest inhibition;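 single compounds in two wells; values far above 100% likely come from compound fluorescence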
* = called active by the depositor; i = inactive; x = not tested or not shown. These rows are one share of the data, so the mix of outcomes need not match the whole.

SMILES	RmlCD inh mix	RmlCD inh mix retest
NC(=O)CCS(=O)(=O)CCN1CCCCC1	67	-11
CCOC(=O)c1c(C)[nH]c(C(=O)CN2C(=O)NC(CC)(c3ccccc3)C2=O)c1C (stereo not drawn)	75	0
CCC(C)NCC(O)COCc1ccc(Cl)cc1 (stereo not drawn)	44	1
CN1CCN(C(=O)CSc2nc(-c3cccs3)ccc2C#N)CC1	45	9
CCc1cccc(N=c2c([N+](=O)[O-])nn(-c3ccc(Cl)cc3)n2O)c1	32	5
CC(=O)C(C)Oc1ccc2c3c(c(=O)oc2c1)CCCCC3 (stereo not drawn)	64	-15
Cc1ccc(C(=O)NCC(=O)NCC(=O)OCc2ccc(Oc3ccc([N+](=O)[O-])cc3)cc2)cc1	32	3
Cc1sc2nc(C(C)C)nc(SCC(=O)N3CCN(C(=O)c4ccco4)CC3)c2c1C	39	-15
CCOC(=O)c1cc(S(=O)(=O)N2CCN(C(=O)OCC)CC2)cn1C	32	7
COc1ccc(C2C(C(=O)N3CCOCC3)=C(C)NC3=C2C(=O)CC(C)(C)C3)c(OC)c1 (stereo not drawn)	35	20
CCOC(=O)Cn1c(S(=O)(=O)Cc2cccc(F)c2)nc(-c2ccccc2)c1-c1ccccc1	53	-1
Cc1c(O)c(CN2CCCCC2)cc2c3c(c(=O)oc12)CCC3	91*	147*
Cn1c(C(=O)Nc2ccc3c(c2)OCO3)cc2c(=O)n(C)c3ccccc3c21	115	14
CCC(C)C(=O)Nc1nc(-c2ccc3c(c2)NC(=O)CO3)cs1 (stereo not drawn)	71	2
COc1ccc(C2Nc3ccccc3C(=O)N2c2ccccc2)cc1COc1ccccn1 (stereo not drawn)	46	24
N#Cc1ccc(C(=O)Nc2ccc(N3CCN(C(=O)c4ccco4)CC3)cc2)c(F)c1	31	-18
Cc1cc(C(=O)Nc2sc(C)c(C)c2C#N)no1	70	3
Cc1cc(NS(=O)(=O)c2ccc(NC(=O)C(CC(C)C)N3C(=O)c4ccccc4C3=O)cc2)nc(C)n1 (stereo not drawn)	59	-3
CC(=O)c1cc2c(cc1NC(=O)c1cnc(C)cn1)OCO2	166	-6
COc1ccc(C(=O)/C=C/N2CCCCC2)cc1OC	89	1

Some of these compounds in order of count of non-hydrogen atoms, lowest first:
SMILES	RmlCD inh mix	RmlCD inh mix retest
NC(=O)CCS(=O)(=O)CCN1CCCCC1	67	-11
CCC(C)NCC(O)COCc1ccc(Cl)cc1 (stereo not drawn)	44	1
COc1ccc(C(=O)/C=C/N2CCCCC2)cc1OC	89	1
CC(=O)C(C)Oc1ccc2c3c(c(=O)oc2c1)CCCCC3 (stereo not drawn)	64	-15
CCC(C)C(=O)Nc1nc(-c2ccc3c(c2)NC(=O)CO3)cs1 (stereo not drawn)	71	2
CN1CCN(C(=O)CSc2nc(-c3cccs3)ccc2C#N)CC1	45	9
CCOC(=O)c1cc(S(=O)(=O)N2CCN(C(=O)OCC)CC2)cn1C	32	7
Cn1c(C(=O)Nc2ccc3c(c2)OCO3)cc2c(=O)n(C)c3ccccc3c21	115	14
CCOC(=O)c1c(C)[nH]c(C(=O)CN2C(=O)NC(CC)(c3ccccc3)C2=O)c1C (stereo not drawn)	75	0
N#Cc1ccc(C(=O)Nc2ccc(N3CCN(C(=O)c4ccco4)CC3)cc2)c(F)c1	31	-18
COc1ccc(C2C(C(=O)N3CCOCC3)=C(C)NC3=C2C(=O)CC(C)(C)C3)c(OC)c1 (stereo not drawn)	35	20
COc1ccc(C2Nc3ccccc3C(=O)N2c2ccccc2)cc1COc1ccccn1 (stereo not drawn)	46	24
CCOC(=O)Cn1c(S(=O)(=O)Cc2cccc(F)c2)nc(-c2ccccc2)c1-c1ccccc1	53	-1
Cc1ccc(C(=O)NCC(=O)NCC(=O)OCc2ccc(Oc3ccc([N+](=O)[O-])cc3)cc2)cc1	32	3
Cc1cc(NS(=O)(=O)c2ccc(NC(=O)C(CC(C)C)N3C(=O)c4ccccc4C3=O)cc2)nc(C)n1 (stereo not drawn)	59	-3

Next part
SMILES	RmlCD inh mix	RmlCD inh mix retest
COc1cc(C(O)P(=O)(OC2CCCCC2)c2ccc(N(C)C)cc2)cc(OC)c1OC (stereo not drawn)	85	-7
COc1ccc(C)cc1NC(=O)c1cnc2scc(C)n2c1=O	47*	x
COc1ccc(C#Cc2c(-c3ccsc3)oc3ccc(-c4cc(OC)c(OC)c(OC)c4)cc23)cc1	60*	117*
COc1ccnc(N2CCN(c3ccccc3)CC2)c1C#N	39	-6
Cc1ccc(C(=O)Nc2cccnc2)cc1NC(=O)c1ccco1	59	-5
CCOC(=O)/C=C(\C)Nc1cc(C)nn1-c1ccccc1	63	4
Nc1ccc(-c2nc3ccc(N)cc3o2)cc1	104*	81*
C=C(Br)Cn1c(CCC)nc2ccccc21	31	8
CCn1c(=O)n(CC(=O)N(C)Cc2ccccc2)c(=O)c2ccccc21	34	-6
Cc1cc(NC(=O)CCC(=O)N(CC(=O)NC2CCCC2)Cc2ccc(F)cc2)no1	68	0
CCOc1ccc(C2NC(=O)c3ccccc3O2)cc1 (stereo not drawn)	58	2
CN(Cc1nc(-c2ccccn2)no1)S(=O)(=O)c1ccccc1	36	4
CCCn1c(=S)[nH]c2cc(C(=O)N3CCc4ccccc43)ccc2c1=O	125	-12
COc1ccccc1-c1nnc(SCC(=O)N2CCC(C)CC2)o1	31	13
CCC(Oc1ccccc1)C(=O)N1CCC(C(N)=O)CC1 (stereo not drawn)	39	-4
O=C(Nc1ccon1)c1ccc(S(=O)(=O)N2CCCCCC2)cc1	40	-3
O=C(CN(CC1CCCO1)C(=O)CCC(=O)Nc1nccs1)NCc1ccc2c(c1)OCO2 (stereo not drawn)	48	-4
O=C1C2(c3ccccc3)CN(CCCO)CC1(c1ccccc1)CN(CCCO)C2	63	-8
CCOC(=O)C1C(=O)CC(O)(c2ccccc2)CC1c1ccccc1 (stereo not drawn)	69	10
COc1ccc2cc3cc(C(=O)NCCN4CCc5ccccc5C4)oc3nc2c1	31	6
COCCCn1cnc2oc3nc4ccccc4nc3c2c1=O	50*	34*
CCOc1ccc(N(CC(=O)Nc2ccc(C)cc2)S(=O)(=O)c2c(C)noc2C)cc1	i	3
COc1ccc(C(=O)NCS(=O)(=O)c2ccc(C)cc2)cc1	106	7
Cc1ccc(-c2noc(-c3ccccc3C(=O)NCC3CCCO3)n2)cc1 (stereo not drawn)	58	-2
Cc1c(Br)c(C(F)(F)F)nn1CC(=O)N1CCCC1	44	-2
CCCC(=O)Nc1nnc(COC)s1	141	7
CCOC(=O)N1CCN(C(=O)c2cc3c(s2)-c2ccccc2OC3)CC1	44	-6
COC(=O)c1ccc(Cl)c(NC(=O)CN(c2ccc(OC)cc2)S(=O)(=O)c2ccccc2)c1	36	-16
COc1ccccc1NC(=O)CSc1nnc(Cc2cc(=O)[nH]c(=O)[nH]2)n1-c1ccccc1	111	1
CCCCNC(=O)Nc1ccccc1C(=O)Nc1ccc(OC)cc1	32	-6
CC(C)OCCCNC(=O)c1ccc(Br)cc1	72	2
COc1ccc(-n2c(N)c(C(=O)NCC3CCCO3)sc2=S)cc1 (stereo not drawn)	37	-6
CCOc1ccc(C(=O)C(c2ccccc2)N2CCOCC2)cc1 (stereo not drawn)	58	-9
COC(=O)CN1C(=O)C2(C(C#N)=C(N)Oc3c2c(C)nn3-c2ccccc2)c2ccccc21 (stereo not drawn)	72	-15
COCCCn1c(=N)c(C(=O)NC2CCCCC2)cc2c(=O)n3ccccc3nc21	49*	x
O=C(COc1ccc(Cl)cc1Cl)NC(=O)N1CCOCC1	41	-9
CCOc1ccc(NC2c3ccccc3C(=O)N2Cc2ccc3c(c2)OCO3)cc1 (stereo not drawn)	99	-13
CCOC(=O)c1nc(C)[nH]c1C(=O)OCC	38	2
COc1ccc(/C(O)=C2/C(=O)C(=O)N(CCN3CCOCC3)C2c2ccccn2)cc1 (stereo not drawn)	36	4
CCCOc1ccc2c(=O)c(N3C(=O)c4ccccc4C3=O)c(C)oc2c1	81	0

By substructure, the entries above containing bromine (3)
SMILES	RmlCD inh mix	RmlCD inh mix retest
C=C(Br)Cn1c(CCC)nc2ccccc21	31	8
Cc1c(Br)c(C(F)(F)F)nn1CC(=O)N1CCCC1	44	-2
CC(C)OCCCNC(=O)c1ccc(Br)cc1	72	2

Carrying on.
SMILES	RmlCD inh mix	RmlCD inh mix retest
CCCS(=O)(=O)N1CCCC(c2nc(-c3ccc(OC)cc3)no2)C1 (stereo not drawn)	72	-7
O=C(NC(NC(=S)Nc1ccccc1C(=O)O)C(Cl)(Cl)Cl)c1cccc([N+](=O)[O-])c1 (stereo not drawn)	107	4
O=C(O)CCN1C(=O)CC2(CCCCC2)C1=O	53	-7
CCOC(=O)c1csc(NC(=O)c2ccc(S(=O)(=O)N3CCCC3)cc2)n1	97*	83*
CCC(C)(C(=O)NC1CCCCC1)N(Cc1ccco1)C(=O)Cc1cccs1 (stereo not drawn)	88	-2
c1ccc(N2CCN(c3c4c(nc5ncnn35)CCC4)CC2)cc1	32	5
COc1ccc(-c2[nH]nc3oc(=O)cc(C)c23)cc1	32	29
C#CCNC(=O)C1=C[C@@H](c2ccc(Br)cc2)[C@H](CCCO)[C@@H](OCC)O1	63	-5
CCN(Cc1nc2ccccc2c(=O)[nH]1)Cc1nc2cc(OC)c(OC)cc2c(=O)[nH]1	82	-1
COc1ccnc(Oc2ccc(F)cc2)c1C(=O)N/C=N/OCc1ccc(Cl)cc1Cl	31	-8
Cc1cc(=O)oc2c(CN(CC(C)C)CC(C)C)c(O)ccc12	105*	109*
CC1CN(C(=O)Nc2ccc3snnc3c2)c2ccccc21 (stereo not drawn)	84	2
Oc1ccc(Br)cc1-c1cc(-c2ccccc2F)[nH]n1	93	-3
COc1ccccc1N=c1oc2cc(O)ccc2cc1C(N)=O	40*	46*
Cc1cc(C(=O)OCC(=O)Nc2ccc(F)c(F)c2)c(C)o1	34	3
COC(=O)c1ccc(Oc2c(C)oc3c(CN4CCN(C)CC4)c(O)ccc3c2=O)cc1	40*	79*
O=c1c2cc3c(=O)n(CC4CCCO4)c(=O)c3cc2c(=O)n1CC1CCCO1 (stereo not drawn)	145	-9
CN1CCC(N(C)c2ncnc3ccc(Br)cc23)CC1	32	7
CCOC(=O)c1ccc(NC(=O)C2C3CCC(C3)C2C(=O)O)cc1 (stereo not drawn)	54	8
COc1ccccc1-c1coc2c(CN3CCN(CCO)CC3)c(O)ccc2c1=O	40*	68*
COc1ccc(CC(=O)c2ccccc2C(=O)O)cc1	54	-3
O=C(O)CCC(=O)N1CCC(C(=O)c2cccc(Cl)c2)CC1	37	-11
CCOC(=O)c1[nH]c(C)c(C(=O)NCC2CCCO2)c1C (stereo not drawn)	39	10
O=c1cc(NCc2ccco2)c2ccccc2o1	31	5
CCCc1cc(=O)oc2c(CN3CCCC3)c(O)c(Cl)cc12	59*	37*
COc1ccc(/C=C(/C#N)S(=O)(=O)c2ccc(C)cc2)cc1	40	13
CCCCC(=O)NC(=S)Nc1ccccc1C(=O)Nc1ccccc1	67	7
CC12CC(c3ccccc3O1)N(C(=O)c1ccc(Br)o1)C(=O)N2c1ccccc1 (stereo not drawn)	97	-14
Cc1c(Cl)cccc1N(CC(=O)NC1CCCCC1)S(C)(=O)=O	52	0
CCN(CC)CCC(c1ccc(N(C)C)cc1)c1c(OC)cc(OC)c2c(-c3ccccc3)cc(=O)oc12 (stereo not drawn)	41	6
CC(Oc1ccccc1Cl)C(=O)N(Cc1ccco1)C1CCS(=O)(=O)C1 (stereo not drawn)	114	-15
O=C(O)CCC(=O)N(Cc1ccco1)c1nc(-c2ccccc2)cs1	31	7
Cc1cccc(NC(=S)NC(=O)C(c2ccccc2)c2ccccc2)n1	61	-2
Cc1ccc(C2Nc3ccccc3C(=O)N2Cc2ccco2)cc1 (stereo not drawn)	101	-31
O=CNc1ccccc1Oc1ccccc1	103	1
CC1(C)CC2CC(C)(CN2C(=O)c2cccs2)C1 (stereo not drawn)	55	-13
CCOC(=O)N1CCN(C(=O)c2ccc3nc4cc(Cl)ccc4c(=O)n3c2)CC1	35	-17
COc1ccccc1-c1c(C)oc2c(CN3CCN(C)CC3)c(O)ccc2c1=O	43*	48*
COc1ccc(OC)c(C2=NO[C@@H]3C(=O)N(c4cc(Cl)ccc4OC)C(=O)[C@H]23)c1	31	19
CC1(C)CC(=O)c2cc(OCC(=O)NCC3CCCO3)ccc2O1 (stereo not drawn)	32	16
COc1ccc(OC)c(-n2nnnc2SCC(=O)NCc2ccc3c(c2)OCO3)c1	107	-5
Cc1ccc(Nc2cnn(C34CC5CC(CC(CC(=O)O)(C5)C3)C4)c(=O)c2Cl)cc1	131	-19
Cn1c(=O)c2c(nc(Br)n2CCc2ccccc2)n(C)c1=O	171	-13
CCCn1c(SCC(=O)Nc2ccc(OCC)cc2)nnc1C(C)C	42	-9
CC(=O)NCCn1c(SCc2cc(F)ccc2F)nc2ccccc2c1=O	56	-11
N=c1c(C(=O)NC2CCCC2)cc2c(=O)n3ccccc3nc2n1C1CCCC1	85*	102*
O=C(O)c1ccccc1OCCOCCOc1ccccc1C(=O)O	37	-6
CN1CCN(C2CC(=O)N(c3ccc4c(c3)OCCO4)C2=O)CC1 (stereo not drawn)	47	-9
Cn1c(=O)cc(OCC(=O)NCCCN2CCN(c3ccccc3F)CC2)c2ccccc21	91	4
COc1ccc(C2CC(=O)c3cnc(N)nc3C2)c(OC)c1 (stereo not drawn)	52	-5
O=C(CSc1nnc(CNC(=O)c2ccco2)o1)c1ccc(Cl)cc1	111	6

Screens as filed in PubChem.
